KCNQ2 block: KCNQ2 potassium channel inhibitors, primary screen, cell-based, CHO-K1, FluxOR thallium flux, B-score (AID 2156); O88943; 20 min; active compounds read low; only compounds with negative scores are shown here; some inactives read as strong as hits; B-score at 10 µM; actives 1.1% (n = 310,000);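 active = fluorescence ratio B-score at most minus 3 library SDs, with starting brightness B-score within 2 library SDs, cut at about -5.5 in these data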
Target sequence (O88943 whole entry, looked up): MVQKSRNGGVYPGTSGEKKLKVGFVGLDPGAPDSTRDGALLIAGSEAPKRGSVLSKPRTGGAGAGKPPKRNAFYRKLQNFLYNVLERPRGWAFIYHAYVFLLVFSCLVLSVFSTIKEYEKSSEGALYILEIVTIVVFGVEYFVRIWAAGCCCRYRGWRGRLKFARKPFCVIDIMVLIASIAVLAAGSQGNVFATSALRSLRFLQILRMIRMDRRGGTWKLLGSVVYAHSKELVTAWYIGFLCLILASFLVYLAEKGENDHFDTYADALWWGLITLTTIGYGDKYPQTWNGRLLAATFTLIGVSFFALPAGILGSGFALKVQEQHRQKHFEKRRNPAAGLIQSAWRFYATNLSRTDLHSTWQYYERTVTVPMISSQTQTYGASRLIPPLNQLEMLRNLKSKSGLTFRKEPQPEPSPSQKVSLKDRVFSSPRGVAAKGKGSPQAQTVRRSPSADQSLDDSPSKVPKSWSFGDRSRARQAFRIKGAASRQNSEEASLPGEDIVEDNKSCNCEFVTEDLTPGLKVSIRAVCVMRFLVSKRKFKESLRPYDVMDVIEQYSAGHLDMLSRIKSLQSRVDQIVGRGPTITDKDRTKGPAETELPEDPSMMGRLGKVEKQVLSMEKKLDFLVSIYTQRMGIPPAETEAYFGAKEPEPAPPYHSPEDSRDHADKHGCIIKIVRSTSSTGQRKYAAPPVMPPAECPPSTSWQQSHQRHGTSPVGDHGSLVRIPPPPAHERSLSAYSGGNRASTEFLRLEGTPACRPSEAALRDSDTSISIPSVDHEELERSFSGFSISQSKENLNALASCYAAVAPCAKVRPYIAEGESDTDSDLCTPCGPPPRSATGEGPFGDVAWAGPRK
KCNQ2 block baseline: further read-out of KCNQ2 block, marked with its call; B-score; measured here: initial fluorescence intensity artifact check;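 brightness before thallium and not channel activity; 0 = typical well and far values either way flag optical interference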
An asterisk follows results filed as active; i = inactive.

SMILES | KCNQ2 block | KCNQ2 block baseline
CC(NC(=O)[C@@H](NC(=O)[C@@H]1Cc2ccccc2CN1)C(C)C)c1ccccc1 (stereo not given in full) | i | 0.43
COC(=O)c1cc(-c2c(C)oc3cc(OC(C)C)ccc3c2=O)c(C)o1 | i | -0.09
CCOCCCNc1ccc(N2C(=O)C3CCCCC3C2=O)cc1[N+](=O)[O-] (stereo not given) | i | 0.24
CCCCCC(=O)NC(=S)Nc1ccc(NC(=O)c2ccco2)cc1 | i | 0.75
CCC(=O)NCCn1c(C)cc2ccccc21 | i | 1.9
CN1CCC(=NNC(=O)CN(c2cccc(Br)c2)S(C)(=O)=O)CC1 | i | 1.9
O=C(CN1C(=O)CC(c2ccccc2)=Nc2ccccc21)NCc1ccco1 | i | 0.89
CCC1CN(C(=O)N2CCC(C(=O)NCc3cc(OC)c(OC)c(OC)c3)CC2)c2ccccc2O1 (stereo not given) | i | 3.1
NC(N)=N/N=C/c1ccc(Cl)c([N+](=O)[O-])c1 | i | -1.4
c1nc(NCC2CCCO2)c2[nH]cnc2n1 (stereo not given) | i | -2.3
Cc1ccccc1Cn1nc(C)c(NC(=O)c2cc(CC(C)C)on2)c1C | i | -0.42
COc1ccc(CC(=O)OCC(=O)Nc2cccc(Cl)c2)cc1 | i | 1.9

Brought forward from above: two entries; new compounds follow.
SMILES | KCNQ2 block | KCNQ2 block baseline
Cc1ccccc1Cn1nc(C)c(NC(=O)c2cc(CC(C)C)on2)c1C | i | -0.42
COc1ccc(CC(=O)OCC(=O)Nc2cccc(Cl)c2)cc1 | i | 1.9
COc1ccc(N2CC(O)(c3ccc(F)cc3)[N+]3=C2CCCC3)cc1 (stereo not given) | i | 0.78
Cc1ccc(/C=C2\CCOC2=O)cc1 | i | -0.02
O=C(CSc1nc(SCC(=O)NCc2ccccc2)n(-c2ccccc2)n1)NCc1ccccc1 | i | -0.75
Nc1ccc(S(=O)(=O)Nc2nccc(/C=C/c3ccc(Cl)cc3Cl)n2)cc1 | i | 2.5
O=C(O)CSC1CC(=O)N(c2ccc(Cl)cc2)C1=O (stereo not given) | i | -1.5
O=C(Nc1cccc([N+](=O)[O-])c1)ONC1=NCCCCC1 | i | 2.3
COc1cc2c(cc1OC)C(/C=C/c1ccco1)=NCC2 | i | 0.02
O=C(Nc1cccc(Cl)c1N1CCCC1)c1ccco1 | i | -0.15
Cc1nn(-c2ccc3ccccc3c2)c(=O)c2ccccc12 | i | -0.67
Clc1nc(Cl)nc(N(c2ccccc2)c2ccccc2)n1 | i | 1.1
O=c1c2ccc([N+](=O)[O-])cc2ncn1CCOc1ccc(Cl)cc1 | i | 0.05
CCCCCC(=O)N1CCN(CCN=CC2=C(O)CC(c3ccco3)CC2=O)CC1 (stereo not given) | i | 0.17
Cc1ccc(NC(=O)c2cc3c(=O)oc4ccc(C)cc4c3s2)nc1 | i | 0.4
COC(=O)c1nc(NC2=NCCCCC2)n[nH]1 | i | -1
COc1ccccc1Nc1c2ccccc2nc2ccccc12 | i | -0.28
O=C(c1ccccn1)N(CC1CCCO1)C1(C(=O)NC2CCCCC2)CCCCC1 (stereo not given) | i | -0.5
CCOC(=O)CSc1nc2ccccc2c(=O)n1NC(=O)c1ccccc1 | i | 0.26
COc1ccc2nc(NC(=O)[C@@H]3CCCN3C(=O)c3cccs3)sc2c1 | i | 0.71
O=c1oc(-c2ccccc2)nc2c1C1(CCCCC1)Cc1ccccc1-2 | -8.7* | -2.3*
COc1ccc(CCNC(=O)C2CC(c3ccccc3F)=NO2)cc1 (stereo not given) | i | -1.1
CCOc1c(Br)cc(CNc2ccc3c(c2)OCCO3)cc1OC | i | -0.07
CC(C)COP(=O)(c1ccc(N(C)C)cc1)C(O)c1ccccc1 (stereo not given) | i | 0.03
CCC(C(=O)NC1CCCCC1)n1c(SCc2cccc(F)c2)nc2ccncc21 (stereo not given) | i | -0.01
Cc1cc(C)n(-c2ccc(C(=O)Nc3cc(C(F)(F)F)ccc3N3CCOCC3)cc2)n1 | i | 0.09
Cc1nn(CCCC(=O)NCCc2ccccc2)c(=O)c2nccn12 | i | -1.1
CCOc1ccccc1/C=c1\sc2nc(-c3ccco3)nn2c1=O | i | 0.62
O=C(CCN1CCOCC1)N1c2ccccc2Sc2ccc(Cl)cc21 | i | 0.14
COc1cc(C(=O)OC2CCN(C)CC2)cc(OC)c1OC | i | 1.9
C=CCc1c(C)nc(SC)nc1Nc1ccc(C(=O)O)cc1 | i | 3.2
Cc1cc(C)cc(NC(=O)C2CCN(S(=O)(=O)c3ccc4[nH]c(=O)ccc4c3)CC2)c1 | i | 2.1
CC1CCC/C(=C\Nc2ccc3c(c2)OCO3)C1=O (stereo not given) | i | -1.9
CCC1(CC)Cc2ccccc2-c2nc(NCCCO)[nH]c(=O)c21 | i | 0.48
O=C(C1Cc2ccccc2CN1S(=O)(=O)c1cccs1)N1CCCCCC1 (stereo not given) | i | -0.37
Oc1ccccc1N1CCN(c2ccc3ccccc3n2)CC1 | i | -0.04
CCOC(=O)C1C(=O)NC(N2CCN(c3ccccc3)CC2)=NC1c1ccco1 (stereo not given) | i | -1
CCCCCC[n+]1c(-c2ccccc2)csc1Nc1ccccc1 | i | -2.4
Cn1c(NCc2ccco2)nc2c1c(=O)n(Cc1ccc(Cl)cc1)c(=O)n2C | i | 2.2
COc1ccc2nc(NCCNC(=S)NCCCN3CCOCC3)c(C#N)cc2c1 | i | 0.24
CCOc1cc(C(=O)NC(=S)Nc2ccc(Cl)c(C(=O)O)c2)cc(OCC)c1OCC | i | -0.47
COCCN(C(=O)c1ccc(OCC(C)C)cc1)c1c(N)n(Cc2ccccc2)c(=O)[nH]c1=O | i | 0.24
CC1=Nc2ncnn2C(c2ccccc2)/C1=N\O (stereo not given) | i | 8.3
CCc1ccc(-n2nc3ccc(NC(=O)c4ccc5c(c4)OCO5)cc3n2)cc1 | i | -0.72
CCc1nonc1NC(=O)COc1ccc(Cl)c(C)c1 | i | 0.03
CCC(C)C(NC(=O)C1CCC(C)CC1)C(=O)NCCc1ccc(S(N)(=O)=O)cc1 (stereo not given) | i | 0.51
COc1cccc(C2CC(c3ccc(C)cc3)n3nc(N)nc3N2)c1 (stereo not given) | i | 0.33
COc1ccc(-c2c(-c3ccccc3)c(C(=O)C(=O)NCCCN(C)C)n3ccc4cc(OC)c(OC)cc4c23)cc1OC | i | -1.7
Cc1oc(-c2ccccc2F)nc1CS(=O)(=O)CC(=O)NCCCN(C)C1CCCCC1 | i | 1.7
CCCC1Oc2ccccc2C(=O)N(CC(=O)c2ccc3c(c2)OCCO3)C1=O (stereo not given) | i | -0.5
CC(NC(=O)c1cc2sccc2n1C)c1ccc2c(c1)OCCO2 (stereo not given) | i | 0.03
O=S(=O)(c1ccc(-n2cnnn2)cc1)N1CCC(N2CCCCC2)CC1 | i | 0.01
CCOC(=O)C1CCN(C(=O)C2CCN(c3nc4ccc(OC)cc4s3)CC2)CC1 | i | -0.09
CC(=O)NC1CC2CCCC(C1)N2C(=O)Nc1ccccc1 (stereo not given) | i | -1.5
Nc1nc(NCCCN2CCOCC2)nc(Nc2ccccc2F)c1[N+](=O)[O-] | i | 0.86
O=C1c2ccccc2C(=O)N1Cc1nc(-c2ccccc2)no1 | i | -1.4
Cc1ccc(C(=S)N2CCN(Cc3ccccc3)CC2)cc1 | i | 4.1
Cc1cc(C)n(CC(O)COc2ccccc2C(=O)Nc2ccccc2)n1 (stereo not given) | -6.6* | 0.53*
O=C(NCc1ccco1)c1ccc(NS(=O)(=O)c2cccc([N+](=O)[O-])c2)cc1 | i | 4.7
CN(C)c1oc(-c2cccs2)nc1C#N | i | -0.07
Fc1cccc(F)c1CSc1nc2ccccc2[nH]1 | i | 0.99
O=C(c1ccccc1Br)N(Cc1ccccc1)c1ccccc1 | i | -0.49
Going on with the list.
SMILES | KCNQ2 block | KCNQ2 block baseline
Cc1cc(C(=O)NCc2cccc(Cl)c2)c2ccccc2n1 | i | 0.51
Cc1ccc(C(=O)Nc2ccccc2C(=O)O)cc1S(=O)(=O)Nc1ccc(Br)cc1 | i | 0.62
CC(=O)N1c2ccc(S(=O)(=O)N3c4ccccc4CC3C)cc2CC1C (stereo not given) | i | -0.41
CN1CCN(Cc2ccc(-c3ccc(Cl)cc3)o2)CC1 | i | -0.53
CN1OC(Cn2cc(C#N)c(=O)n(C)c2=O)CC1c1ccccc1 (stereo not given) | i | 0.55
COc1ncnc2c1ncn2CC1COC(C)(C)O1 (stereo not given) | i | 1.5
CC(=O)Nc1nonc1-c1nc2ccccc2n1CCC#N | i | -0.9
CCN(CC#CCC(O)(c1ccccc1)C1CCCC1)C(C)C (stereo not given) | i | 0.39
COC(=O)CSc1nc(NC#N)nc(NC(C)C)n1 | i | 1.4
Cc1ccc(C(=O)N2CCC3(CC2)Oc2ccc(F)cc2C(=O)C32CC(c3ccc(Cl)cc3)=NO2)s1 (stereo not given) | i | -0.42
Cc1ccc(S(=O)(=O)NC2(C(F)(F)F)NC(=O)N(c3ccc(F)cc3)C2=O)cc1 (stereo not given) | i | -0.76
N#CC1=C(N)Oc2cc(N)ccc2C1c1ccsc1 (stereo not given) | i | 1.2
CC(C)OC(=O)c1nnc(Cc2ccc(F)cc2)o1 | i | 1.1
c1ccc(-c2cn(-c3ccccc3)c3ncnc(NCCCN4CCOCC4)c23)cc1 | -5.6* | 0.01*
O=[N+]([O-])c1cc2c(c(CSc3ncccn3)c1)OCOC2 | i | 0.35
O=C(CC12CC3CC(CC(C3)C1)C2)Nc1ccc(C(=O)O)cc1 | i | -0.83
COc1ccc(CCN(C)C(=O)c2cc(-c3ccccc3)nc3ccccc23)cc1OC | i | -0.37
O=S(=O)([O-])C(c1ccccc1)[n+]1ccccc1 (stereo not given) | i | 1.5
Cc1ccc(C)c(OCCNc2ncccc2[N+](=O)[O-])c1 | i | -0.43
Cc1nn(-c2ccccc2)c(C)c1/C=N/n1c(-c2ccc(Cl)cc2)n[nH]c1=S | i | 0.76
COc1ccc(OC)c(-c2cc(C(=O)N3CCN(c4ccccc4)CC3)no2)c1 | i | 1.3
Cc1csc(SCC(=O)O)n1 | i | 0.87
Oc1ccc2ccccc2c1N=Nc1ccccn1 | i | 0.11
CCOC(=O)c1nccnc1C(=O)Nc1cccc(C(F)(F)F)c1 | i | 0.49
Cc1cc(C)cc(NC(=S)N2CCN(Cc3ccccc3)CC2)c1 | i | -0.96
Cc1cc(NC(=O)CSc2nnnn2Cc2ccccc2)no1 | i | 0.06
CCS(=O)(=O)C1=NSC2=NC(=O)/C(=C\c3ccc(OC(=O)c4ccco4)cc3)C(=N)N21 | i | 1.2
COc1cc(C(=O)Nc2ccc(S(=O)(=O)Nc3onc(C)c3C)cc2)cc(OC)c1OC | i | 1.6
O=C(CSc1nnc(-c2c[nH]c3ccccc23)o1)N1c2ccccc2CCc2ccccc21 | i | -0.68
O=CNNC(=O)c1cccc([N+](=O)[O-])c1 | i | 0.08
CN(C)c1ccc(NC(=O)Cn2cc3c(n2)CCCC3)cc1 | i | -0.84
Cc1ccc(-n2nc3c(N4CCC(C(=O)NCc5cccc(F)c5)CC4)nnc(C)c3c2C)cc1 | i | 0.37
COCCn1cnc2c1c(=O)n(Cc1ccc(Br)cc1)c(=O)n2Cc1ccccc1 | i | 1.1
O=C(NNC(=O)c1cc2cc(OC(F)(F)F)ccc2[nH]1)c1ccc(Cl)cc1 | i | 0.29
O=C(CCCN1C(=O)S/C(=C/C=C/c2ccccc2)C1=O)Nc1ccc(C(=O)O)cc1 | i | -1.2
Fc1ccc(OCc2nc(-c3ccc(Br)o3)no2)c(F)c1 | i | -0.92
Cc1ccccc1CNC(=O)Cn1ccc2cc(S(=O)(=O)N3CCCCCC3)ccc21 | i | -0.34
S=C(Cc1ccc(-c2ccccc2)cc1)N1CCOCC1 | i | 0.74
Cc1ccccc1N(C(=O)Cc1ccsc1)C(C(=O)NC1CCCCC1)c1ccc(F)cc1 (stereo not given) | i | -0.45
COc1ccc(S(=O)(=O)NNC(=O)c2cc3cc4ccccc4nc3s2)cc1 | i | -0.88
CCC(=O)N1CCc2cc(S(=O)(=O)NC(C(=O)NCc3ccc(F)cc3)C(C)C)ccc21 (stereo not given) | i | 1.8
Cc1cccc(OCC(=O)Nc2c3c(nn2C(C)(C)C)CS(=O)(=O)C3)c1 | i | 0.05
N#Cc1nc(COc2ccccc2)oc1N1CCOCC1 | i | -0.02
COc1ccc(CCNC(=O)CSc2nc(C)nc3c2c(=O)n(C)c(=O)n3C)cc1OC | i | 2.3
CCc1ccc(S(=O)(=O)Nc2cc3c(cc2C)n(C)c(=O)n3C)cc1 | i | -0.33
O=c1ccc2[n+]([O-])c3ccc(O)cc3oc-2c1 | i | 5.1

Filtered by structure, the compounds so far with a Cl atom
SMILES | KCNQ2 block | KCNQ2 block baseline
NC(N)=N/N=C/c1ccc(Cl)c([N+](=O)[O-])c1 | i | -1.4
COc1ccc(CC(=O)OCC(=O)Nc2cccc(Cl)c2)cc1 | i | 1.9
Nc1ccc(S(=O)(=O)Nc2nccc(/C=C/c3ccc(Cl)cc3Cl)n2)cc1 | i | 2.5
O=C(O)CSC1CC(=O)N(c2ccc(Cl)cc2)C1=O (stereo not given) | i | -1.5
O=C(Nc1cccc(Cl)c1N1CCCC1)c1ccco1 | i | -0.15
Clc1nc(Cl)nc(N(c2ccccc2)c2ccccc2)n1 | i | 1.1
O=c1c2ccc([N+](=O)[O-])cc2ncn1CCOc1ccc(Cl)cc1 | i | 0.05
O=C(CCN1CCOCC1)N1c2ccccc2Sc2ccc(Cl)cc21 | i | 0.14
Cn1c(NCc2ccco2)nc2c1c(=O)n(Cc1ccc(Cl)cc1)c(=O)n2C | i | 2.2
CCOc1cc(C(=O)NC(=S)Nc2ccc(Cl)c(C(=O)O)c2)cc(OCC)c1OCC | i | -0.47
CCc1nonc1NC(=O)COc1ccc(Cl)c(C)c1 | i | 0.03
Cc1cc(C(=O)NCc2cccc(Cl)c2)c2ccccc2n1 | i | 0.51
CN1CCN(Cc2ccc(-c3ccc(Cl)cc3)o2)CC1 | i | -0.53
Cc1ccc(C(=O)N2CCC3(CC2)Oc2ccc(F)cc2C(=O)C32CC(c3ccc(Cl)cc3)=NO2)s1 (stereo not given) | i | -0.42
Cc1nn(-c2ccccc2)c(C)c1/C=N/n1c(-c2ccc(Cl)cc2)n[nH]c1=S | i | 0.76
O=C(NNC(=O)c1cc2cc(OC(F)(F)F)ccc2[nH]1)c1ccc(Cl)cc1 | i | 0.29

Not all compounds are listed; count on the stated rates, not on these rows.
